Screening results (PubChem BioAssay)
Tg IFNy HTS: T. gondii growth inhibition with IFN-gamma, primary screen, cell-based | Toxoplasma gondii growth in IFN-gamma-treated host cells; hits give low values; reference of the scale not given here | activity change, negative = inhibition, %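 (about 20 µM by stock and volumes)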 | actives 3.8% (n = 69,000) | AID 1259416, 2018;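 active means below -70%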;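 further: host cells are HeLa cells infected with Toxoplasma gondii; parasite growth read as luciferase light; one replicate is shown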
An asterisk follows results filed as active; i = inactive. Only part of the results is shown; count on the stated rates, not on these rows.

Preview, 4 compounds:
SMILES	Tg IFNy HTS
O=c1ccc2cc(S(=O)(=O)N3CCCC3)ccc2[nH]1	i
O=C(CN1CCc2ccccc21)NN1CC(=O)N(c2ccc(Cl)cc2)CC1=O	26
CCn1ccc2cc(S(=O)(=O)N3CCC(C(=O)NCCCN4CCCC4=O)CC3)ccc21	35
CCCCNS(=O)(=O)c1cc2c3c(c1)CCC(=O)N3CCC2	46

The listing, previewed entries included:
SMILES	Tg IFNy HTS
O=c1ccc2cc(S(=O)(=O)N3CCCC3)ccc2[nH]1	i
O=C(CN1CCc2ccccc21)NN1CC(=O)N(c2ccc(Cl)cc2)CC1=O	26
CCn1ccc2cc(S(=O)(=O)N3CCC(C(=O)NCCCN4CCCC4=O)CC3)ccc21	35
CCCCNS(=O)(=O)c1cc2c3c(c1)CCC(=O)N3CCC2	46
CC(C)=CC(=O)NCC1CCN(Cc2cc(C)ccc2C)C1 (stereo unspecified)	9
COCCn1cnc(-c2nc(C(=O)NCC3CCCO3)c3ccccn23)c1 (stereo unspecified)	39
O=C(C[C@@H]1CC[C@H]2[C@@H](COC[C@H](O)CN2C(=O)c2cnccn2)O1)NCc1ccc(Cl)cc1	-11
CCN(C)C(=O)c1ccc(N2CCC(c3[nH]ncc3-c3ccccc3)CC2)nc1	-24
COc1ccc(OC)c([C@@H]2CN(Cc3ccccc3)C[C@H]2NC(=O)c2cc(C)no2)c1	-54
O=C(N[C@@H]1CC[C@H](CCNS(=O)(=O)c2ccc(F)cc2)O[C@H]1CO)C1CCC1	-45

Given with each value named: part of the list above
smiles: O=C(C[C@@H]1CC[C@H]2[C@@H](COC[C@H](O)CN2C(=O)c2cnccn2)O1)NCc1ccc(Cl)cc1
  Tg IFNy HTS: -11

smiles: CCN(C)C(=O)c1ccc(N2CCC(c3[nH]ncc3-c3ccccc3)CC2)nc1
  Tg IFNy HTS: -24

Going on with the list.
SMILES	Tg IFNy HTS
COCC(=O)N1CCc2c([nH]c3ccccc23)C1c1ccc(F)cc1 (stereo unspecified)	410
CN(C)S(=O)(=O)N1CC[C@@H](c2ccc3ccccc3c2)[C@H](O)C1	2
C=CCN1CC2(CCN(C(=O)c3ccc[nH]3)CC2)OCC1=O	3
CCN1CCC2(CC1)OC(=O)C(C)=C2C(=O)NCCCN1CCN(c2cc(C)ccc2C)CC1	-20
CSc1ccc(-c2nc(CN3CCn4nc(C)cc4C3)c(C)o2)cc1	6
S=C(CCC(=S)Nc1ccc(Cl)cc1)Nc1ccc(Cl)cc1	-15
CCN1C(=O)CCc2cc(NC(=O)c3ccsc3)ccc21	84
CN1CC(=O)N(c2ccsc2)CC12CCN(C(=O)Nc1ccccc1F)C2 (stereo unspecified)	-101*
CCc1ccccc1S(=O)(=O)N1CCC2(CC1)Nc1cc(F)ccc1-n1cccc12	17
OCCN1CCCC2(COCCN(c3nncs3)C2)C1 (stereo unspecified)	28
CCn1cnc(NC(=O)N(C)Cc2cccc3ncccc23)n1	-1
COc1ccc(NC(=O)N(C)C[C@H]2Oc3ccc(NC(=O)CCN4CCOCC4)cc3C(=O)N([C@@H](C)CO)C[C@@H]2C)cc1	10
Cc1cc(CC(C)NC(=O)CC2=CCCCC2)n[nH]1 (stereo unspecified)	3
CCCc1nnc2sc(C(C)n3cnc4ccccc4c3=O)nn12 (stereo unspecified)	7
Cc1nc(-c2ccccc2)sc1CCNC(=O)C(=O)Nc1cccc([N+](=O)[O-])c1	325
O=C(c1ccccc1F)c1cc2c(cc1[N+](=O)[O-])OCCO2	22
Cc1c(/C=C/c2ccnc(SCC(=O)Nc3ccccc3)n2)sc2ccccc12	-27
COC(=O)C(CCSC)N1Cc2ncccc2C1=O (stereo unspecified)	3
Cc1ccc2c(c1C)-n1cccc1C1(CCN(C(=O)c3ccccc3F)CC1)N2	47
Cc1cnc(C)c(-c2cc(O)c3c(c2)CN(CCn2cccc2)CCO3)n1	-30
CCOc1ccccc1-c1nc(CN(c2ccccc2)S(=O)(=O)c2cccs2)c(C)o1	-19
COc1ccc2c3c([nH]c2c1)[C@H](CO)N(C(=O)Nc1ccc(F)cc1)CC31CCN(C(=O)Cc2ccncc2)CC1	3
CC(C(=O)NCc1cccc(Cl)c1)N(c1ccccc1)S(C)(=O)=O (stereo unspecified)	-9
CCC(c1cccnc1)N(C)C(=O)c1ccc(CO)o1 (stereo unspecified)	0
Cc1nnsc1C(=O)OCCN(C)c1ccc(C#N)cn1	-4
CCc1ccc(Nc2nc(-c3nnc(-c4ccccc4)o3)nc3ccccc23)cc1	7
O=C(NCc1ccccc1)c1c(O)c2cccnc2n(-c2ccc(F)cc2)c1=O	75
COc1ccccc1-c1ccc(NCC2COCCO2)nn1 (stereo unspecified)	8
Cc1nc(-c2ccc(F)cc2)sc1CCNC(=O)C(=O)Nc1cccc(F)c1	33
CN1CC2(CCN(Cc3nccn3C)CC2)CC1C(=O)O (stereo unspecified)	4
C[C@H]1CCCCO[C@@H](CN(C)S(=O)(=O)c2ccc(F)cc2)[C@@H](C)CN([C@@H](C)CO)C(=O)c2cc(N(C)C)ccc2O1	427
CN(C)C(=O)N1CCC2(CC1)CC(CC(=O)NC1CC1)c1ccccc1O2 (stereo unspecified)	-45
CCOC(=O)C1CCCN(Cc2nc(NCc3cccs3)c3ccccc3n2)C1 (stereo unspecified)	-8
CC(C)C(=O)NCc1csc(C2CCCN(C(=O)c3ccccc3Cl)C2)n1 (stereo unspecified)	-10
Cc1ccc(S(=O)(=O)N2C[C@H](O)COC[C@H]3O[C@H](CC(=O)NCc4ccc5c(c4)OCO5)CC[C@@H]32)cc1	5
O=C(c1ccc(-c2ccc(O)cc2)nc1)N1CCC(CCc2ccccc2)CC1	-48
CC(C)OCc1ncn2c1CN(S(=O)(=O)C1CC1)CCC2	-6
COc1ccc(NC(=O)CN2C(=O)CCc3cc(S(=O)(=O)N4CCCCC4)ccc32)cc1	-18
O=C(c1ccc(N2CCOCC2)nc1)N1CCC(Oc2cccnc2)CC1	-1
COc1cc(C(=O)Nc2scc3c2c(=O)oc2ccccc23)cc(OC)c1OC	41

Given as a markdown table: 4 of the compounds above
| molecule | Tg IFNy HTS |
| --- | --- |
| C[C@H]1CCCCO[C@@H](CN(C)S(=O)(=O)c2ccc(F)cc2)[C@@H](C)CN([C@@H](C)CO)C(=O)c2cc(N(C)C)ccc2O1 | 427 |
| O=C(c1ccc(N2CCOCC2)nc1)N1CCC(Oc2cccnc2)CC1 | -1 |
| COc1cc(C(=O)Nc2scc3c2c(=O)oc2ccccc23)cc(OC)c1OC | 41 |
| CC(C)C(=O)NCc1csc(C2CCCN(C(=O)c3ccccc3Cl)C2)n1 (stereo unspecified) | -10 |

(listing goes on)
SMILES	Tg IFNy HTS
COc1ccc(-c2nc(CCNC(=O)c3ccc(Cl)cc3)cs2)cc1	80
Cc1ccoc1C(=O)NCCC1CCCN(Cc2nccn2C)C1 (stereo unspecified)	-8
CCN1CCC2(CN(C(=O)N(C)C)CC23CCN(Cc2ccoc2)CC3)C1=O (stereo unspecified)	-40
C[C@H]1CN([C@@H](C)CO)C(=O)c2ccccc2-c2ccccc2CO[C@H]1CN(C)C(=O)Nc1ccnc(N2CCOCC2)c1	-8
COc1ccccc1C(=O)NCCc1csc(-c2ccc(F)cc2)n1	-93*
CCOC(=O)c1[nH]c(C)c(C(=O)N[C@@H]2C[C@@H](CO)N(C)C2)c1C	-60
COc1ccc2c3c(n(C)c2c1)[C@H](CO)N(Cc1ccncc1)CC31CN(C(=O)Nc2cccc(F)c2)C1	-42
Cc1c(C)c(C)c(S(=O)(=O)Nc2cc(C(C)(C)C)nn2-c2ccccc2)c(C)c1C	-67
Cn1c(=O)[nH]cc(CCN2CCc3[nH]nc(-c4ccc(F)c(F)c4)c3C2)c1=O	10
O=C(Nc1ccccc1-c1ccccc1CO)C1CC1	6
CN(c1ccccc1)c1ncnc2oc(-c3ccco3)c(-c3ccco3)c12	26
COc1ccc(CCNC(=O)COc2ccc(Br)c(C)c2)cc1OC	-11
O=C(Nc1ccc(-c2nc(-c3ccccc3)co2)cc1)c1ccco1	98
CC(=O)N(Cc1cccc(F)c1)C[C@@H]1[C@@H](c2ccccc2)[C@@H](CO)N1C(C)=O	19
Cc1ccc2ccc3ccc(C)nc3c2n1	-76*
C[C@@H]1CN([C@@H](C)CO)C(=O)Cc2cc(NC(=O)CCC(F)(F)F)ccc2O[C@H]1CN(C)CC1CC1	17
O=c1[nH]c2cc3c(cc2cc1CN(CCO)Cc1nnnn1Cc1ccccc1)OCCO3	-82*
CC(C)N1CC(c2cc(N(C)C)nc(CN(C)C(=O)c3ccc4ncccc4c3)n2)CC1=O (stereo unspecified)	-7
COC(=O)c1c(NCc2c(C)noc2C)c2ccccc2[nH]c1=O	14
C[C@H](CO)N1C[C@H](C)[C@@H](CN(C)S(=O)(=O)c2ccc(F)cc2)OCCCC[C@H](C)Oc2ccc(N(C)C)cc2C1=O	i
COc1ccccc1N1CC(C)(C)C(=O)N(C(=O)c2c(F)cccc2Cl)C1=S	37
CC1CCN(S(=O)(=O)c2ccc3c(c2)CCC(=O)N3CC(=O)Nc2ccc3c(c2)OCO3)CC1	-18
O=C(c1cccc(F)c1)N1CC(=O)N2[C@H](CO)[C@@H](c3ccc(/C=C/c4ccccc4)cc3)[C@H]2C1	-45
O=C(NCCc1csc(-c2ccccc2)n1)[C@H]1CSCN1C(=O)COc1ccccc1	17
CC(=O)NCCc1n[nH]c(Cc2ccccc2)n1	9
CN1CCCC2(CCN(C(=O)c3ccc(-c4nnn(C)n4)cc3)C2)C1=O (stereo unspecified)	-51
CC(C)(C)c1csc(=S)n1CCc1ccc(Cl)cc1	-87*
COC(=O)c1ccc(CSc2ccccc2N)o1	69
Cc1cccc2nc(CNC(=O)c3cccc(C4CCNC4)c3)cn12 (stereo unspecified)	-4
Cc1cccc(-n2ncc3c(NC(C)(C)C)ncnc32)c1	76
COC(=O)c1c(NCCc2c[nH]c3ccccc23)c2ccccc2[nH]c1=O	-89*
CS(=O)(=O)N(CC(=O)N1CCN(c2ccc(F)cc2)CC1)C1CCCCC1	-8
COc1ccc(C(=O)N2CCC3(CC2)OC(C(=O)Nc2cccnc2)Cn2ccnc23)cc1 (stereo unspecified)	-5
COc1cccc(C2CCCN2C(=O)COc2cc(C)nc3ccc(C)cc23)c1 (stereo unspecified)	-1
CC(=O)Nc1ccc(OCc2ncc(C(F)(F)F)cc2Cl)cc1	-44
COc1ccc(CNc2nc(-c3ccc(OC)cc3)nc3ccccc23)cc1	-42
Cc1csc(NC(=O)CN2C(=O)CCc3cc(S(=O)(=O)N4CCC(C)CC4)ccc32)n1	-93*
CC(=O)Nc1ccc(C(=O)N(c2cc(C)cc(C)c2)C2(C(=O)NCc3ccccc3)CCN(C(C)=O)CC2)cc1	173
CCC(C)C(=O)OC1CC(C)C=C2C=CC(C)C(CCC(O)CC(O)CC(=O)O)C21 (stereo unspecified)	5
COc1ccc(CCn2cnc3c4cc(F)ccc4n(Cc4ccc(N5CCCC5=O)cc4)c3c2=O)cc1OC	-28
O=c1oc(COc2ccc(Cl)cc2Cl)nc2ccccc12	459
COc1ccccc1-c1nc(Cn2nnc(-c3nc(-c4ccccc4Cl)no3)c2C)c(C)o1	4
CN(C)CCNC(=O)c1ccc2onc(-c3coc(C4CC4)n3)c2c1	-40
Cn1nc(C(=O)NCc2cn3c(n2)SCC3)c2c1CCCC2	3
Cc1ccc(-c2cc(O)c3c(c2)CN(C(=O)Nc2ccccc2)CCO3)s1	1
O=C(Nc1cccc(Cl)c1)C1CCN(S(=O)(=O)c2ccc3[nH]c(=O)ccc3c2)CC1	5
c1ccc(-n2cnc3cc(NCc4ccccn4)ccc32)cc1	-56
Cc1nc(-c2nnc(-c3ccc(Cl)cc3)o2)c(C(F)(F)F)o1	-52
CS(=O)(=O)N1CCC2OCCCC2(COCc2ccncc2)C1 (stereo unspecified)	4
O=S(=O)(c1cccc(F)c1)N1CCC2(CCCN(CC3CCOCC3)C2)C1 (stereo unspecified)	-24
(listing goes on)
SMILES	Tg IFNy HTS
O=C(NCCCN1CCCC1=O)c1nc(Nc2ccc(F)cc2)c2ccccc2n1	-11
CC(=O)N1CCC2(CC1)N=C(c1ccccc1O)CC(c1ccccc1O)N2 (stereo unspecified)	-63
Cc1nn(-c2ccccc2)c2sc(C(=O)Nc3nccs3)cc12	-20
COc1cccc(C(=O)Nc2ccc(-c3nc(-c4ccccc4)co3)cc2)c1	69
C[C@@H]1CN([C@H](C)CO)C(=O)Cc2cc(NS(=O)(=O)c3ccc(Cl)cc3)ccc2O[C@@H]1CN(C)C(=O)Nc1ccc(C(F)(F)F)cc1	-58
COc1ccc(-c2noc(-c3ccc(N(C)Cc4cc(C)no4)nc3)n2)cc1	255
CCOc1cccc2sc(NC(=O)c3cn4cnnc4[nH]c3=O)nc12	-5
CC(=O)N1CCOCC1c1nccc(NCc2cccnc2)n1 (stereo unspecified)	3
CCc1ccc(NC(=O)N2CCC3(CC2)c2cccn2-c2ccc(C)cc2N3CC)cc1	-47
COc1ccc2c3c([nH]c2c1)[C@@H](CO)N(C(=O)c1ccccn1)CC31CN(C(=O)C2CCC2)C1	16
C=CCN1CCN(C(=O)NCc2cccnc2)Cc2ccc(C)nc21	4
CC(C)N1CCOCC2(CN(C(=O)c3ccn[nH]3)CCO2)C1 (stereo unspecified)	-9
COC(=O)c1cc(C)nc2c1c(=O)n(Cc1nc(-c3cccc(C)c3)oc1C)c(=O)n2-c1ccccc1	-44
CC1(C)CC(N(Cc2ccccc2)Cc2ccccn2)CC(C)(C)N1	-47
